High-throughput results as filed in PubChem.
KCNQ2 inh: KCNQ2 channel blockers in CHO-K1 cells – cell-based, FluxOR thallium flux, B-score, primary screen (AID 2156) | O88943 | hit rate 1.1% among 310,000 | B-score at 10 µM | 20 min; stronger effect = lower value; only compounds with negative scores are shown here; some inactives read as strong as hits;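 active means fluorescence ratio B-score at most minus 3 library SDs, with starting brightness B-score within 2 library SDs, cut at about -5.5 in these data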
Target sequence (O88943 whole entry, looked up): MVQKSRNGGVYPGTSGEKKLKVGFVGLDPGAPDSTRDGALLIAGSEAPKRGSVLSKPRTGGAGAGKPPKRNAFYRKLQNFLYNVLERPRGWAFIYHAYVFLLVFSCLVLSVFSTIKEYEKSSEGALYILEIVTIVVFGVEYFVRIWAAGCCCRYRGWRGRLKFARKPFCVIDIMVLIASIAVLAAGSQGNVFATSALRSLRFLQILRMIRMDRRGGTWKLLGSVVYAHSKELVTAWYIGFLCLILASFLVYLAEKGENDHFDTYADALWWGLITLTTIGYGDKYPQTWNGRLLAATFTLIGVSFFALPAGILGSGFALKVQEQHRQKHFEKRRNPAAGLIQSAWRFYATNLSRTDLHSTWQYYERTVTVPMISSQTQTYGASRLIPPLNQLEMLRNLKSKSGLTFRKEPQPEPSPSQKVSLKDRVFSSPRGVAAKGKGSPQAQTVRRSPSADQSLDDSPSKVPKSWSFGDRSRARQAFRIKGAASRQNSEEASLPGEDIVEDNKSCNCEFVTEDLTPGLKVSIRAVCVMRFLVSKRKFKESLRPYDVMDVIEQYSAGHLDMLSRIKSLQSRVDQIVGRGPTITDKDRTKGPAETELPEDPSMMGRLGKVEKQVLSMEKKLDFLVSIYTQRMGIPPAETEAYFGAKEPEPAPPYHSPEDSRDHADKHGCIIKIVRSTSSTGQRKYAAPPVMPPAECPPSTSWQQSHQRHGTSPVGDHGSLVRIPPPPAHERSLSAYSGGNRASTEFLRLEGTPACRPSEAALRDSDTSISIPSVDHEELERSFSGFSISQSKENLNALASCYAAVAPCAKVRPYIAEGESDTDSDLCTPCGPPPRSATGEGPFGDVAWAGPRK
KCNQ2 inh baseline: recorded beside KCNQ2 inh, whose call it bears; B-score; measured here: initial fluorescence intensity artifact check;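 brightness before thallium and not channel activity; 0 = typical well and far values either way flag optical interference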
* = called active by the depositor; i = inactive. Some of the compounds tested (hit frequency here may not be typical).

Start of the listing, in advance:
SMILES	KCNQ2 inh	KCNQ2 inh baseline
COC(C[C@H]1O[C@H]1C(=O)COCc1ccccc1)OC	i	0.52
CC(C)c1ccc(NC(=O)CSc2nc3ncccc3[nH]2)cc1	i	-0.12

The whole of this part, previewed entries included:
SMILES	KCNQ2 inh	KCNQ2 inh baseline
COC(C[C@H]1O[C@H]1C(=O)COCc1ccccc1)OC	i	0.52
CC(C)c1ccc(NC(=O)CSc2nc3ncccc3[nH]2)cc1	i	-0.12
COc1ccc(/C=C/C(=O)OCc2cc(=O)n3c(n2)sc2ccccc23)cc1	i	-0.12
Cc1cc(C)cc(N=c2c([N+](=O)[O-])nn(-c3ccc4c(c3)OCCO4)n2O)c1	i	1.5
O=C(c1cc(=O)[nH]c2ccccc12)N1CCN(S(=O)(=O)c2ccc3ccccc3c2)CC1	i	0.6
CCOc1cccc(OCCOc2ccccc2[N+](=O)[O-])c1	i	0.24
Cc1ccc(S(=O)(=O)NCC(=O)N2CCN(S(=O)(=O)c3ccc(Cl)cc3)CC2)cc1C	i	-0.05
Cc1[nH]c(=O)[nH]c(=O)c1S(=O)(=O)Nc1cccc(C(F)(F)F)c1	i	0.92
COCc1cc(=O)[nH]c(SCC(=O)Nc2ccccc2)n1	i	-0.09
Cc1ccc(OCC(=O)c2cc(C)n(C3CC3)c2C)c([N+](=O)[O-])n1	i	0.06
COc1ccc(C)cc1NC(=O)CSc1nc(SC)ns1	i	-0.94
O=C(CN(CC1CCCO1)C(=O)CNS(=O)(=O)c1ccc(F)cc1)NCc1ccccc1 (stereo not drawn)	i	0.23
COc1ccc([N+](=O)[O-])cc1NC(=O)CCCOc1ccccc1	i	0.16
CC(OC(=O)CSc1ccc([N+](=O)[O-])cc1)C(=O)NCc1ccccc1 (stereo not drawn)	i	0.11
CC(C)c1ccccc1OCC(=O)Nc1ccccc1C(=O)N1CCOCC1	i	0.71
CC(=O)Nc1ccc(NC(=O)/C(=C/c2ccco2)NC(=O)c2ccccc2)cc1	i	-2.2
c1ccc2c(-c3cn4ccccc4n3)c[nH]c2c1	i	0.24
CNc1ccc(OC(F)F)cc1C(=O)c1ccccc1	i	-2.3
COc1ccc2cc(C(=O)Nc3ccccc3)sc(=O)c2c1OC	i	0.94
CSc1ccc(C#N)cc1NC(=O)c1ccc(Cl)nc1	i	0.83

Quoted at random: 7 compounds from above
SMILES	KCNQ2 inh	KCNQ2 inh baseline
CNc1ccc(OC(F)F)cc1C(=O)c1ccccc1	i	-2.3
CC(OC(=O)CSc1ccc([N+](=O)[O-])cc1)C(=O)NCc1ccccc1 (stereo not drawn)	i	0.11
O=C(CN(CC1CCCO1)C(=O)CNS(=O)(=O)c1ccc(F)cc1)NCc1ccccc1 (stereo not drawn)	i	0.23
CC(=O)Nc1ccc(NC(=O)/C(=C/c2ccco2)NC(=O)c2ccccc2)cc1	i	-2.2
Cc1ccc(OCC(=O)c2cc(C)n(C3CC3)c2C)c([N+](=O)[O-])n1	i	0.06
COc1ccc(C)cc1NC(=O)CSc1nc(SC)ns1	i	-0.94
COCc1cc(=O)[nH]c(SCC(=O)Nc2ccccc2)n1	i	-0.09

Structural class, the entries above containing a Cl atom (2)
SMILES	KCNQ2 inh	KCNQ2 inh baseline
Cc1ccc(S(=O)(=O)NCC(=O)N2CCN(S(=O)(=O)c3ccc(Cl)cc3)CC2)cc1C	i	-0.05
CSc1ccc(C#N)cc1NC(=O)c1ccc(Cl)nc1	i	0.83

Next section
SMILES	KCNQ2 inh	KCNQ2 inh baseline
O=C(O)[C@@H]1CCCC[C@@H]1C(=O)N1CCc2ccccc2C1CN1C(=O)c2ccccc2C1=O (stereo partly drawn)	i	1.4
COc1ccccc1CCn1cc(C#N)c(=O)[nH]c1=O	i	1.8
COc1ccc(C(=O)c2oc3ccccc3c2N)cc1	i	-0.96
CCCC(c1nnnn1Cc1ccc(OC)cc1)N1CCN(C(=O)c2ccco2)CC1 (stereo not drawn)	i	1.2
N#C/C(=C\c1ccccc1)c1ccccn1	i	1.4
S=C1NC2=C(CCCC2=C2SCCCS2)C(c2ccccc2)N1 (stereo not drawn)	i	-1.5
CC1CCCCN1c1ncnc2ccccc12 (stereo not drawn)	i	1.9
O=C(NCc1nc2ccccc2[nH]1)C1=C[C@@H](C2CCCCC2)C[C@@H](OCCCCO)O1	i	1.4
CCSc1ccc(-c2ccc(C)cc2)nn1	i	-1.5
CCC[C@@H]1C[C@@H](C(=O)NC(C(C)Cl)[C@H]2O[C@H](SC)[C@H](O)[C@@H](O)[C@H]2O)N(C)C1 (stereo partly drawn)	i	0.02
CCCNC(=O)c1ccccc1NC(=O)CN(c1ccccc1OCC)S(C)(=O)=O	i	2
COc1cccc(-c2nc(CC(=O)O)cs2)c1OC	i	-1
CC(C(=O)NC(C)(C)C)N(Cc1cccs1)C(=O)CCN1CCc2ccccc21 (stereo not drawn)	i	-1.2
S=c1[nH]ccn1-c1cccc(Cl)c1	i	-0.02
Nc1cc(=O)nc(SCc2ccccc2)n1Cc1ccco1	i	-1
COc1cc(-c2nc(CN3CCN(C(=O)c4ccco4)CC3)c(C)o2)ccc1F	i	0.8
Cc1ccc(Cn2nnnc2CN2CCC(O)(c3cccnc3)CC2)cc1	i	0.88
COc1cc(C(c2c(C)n(C)n(-c3ccccc3)c2=O)c2c(C)n(C)n(-c3ccccc3)c2=O)cc(Br)c1O	i	0.61
COc1ccc(CCNC(=O)CSc2nnnn2-c2ccccc2)cc1	i	0.05
Cc1cccc(C)c1NS(=O)(=O)c1ccc(F)cc1	i	-0.71
COc1nc(NCCO)nc(Nc2ccc([N+](=O)[O-])cc2)n1	i	1.7
COc1cccc(Cn2c(NCc3ccco3)nc3c2c(=O)n(C)c(=O)n3C)c1	i	-0.17
COc1ccccc1C1CC(c2cccs2)=Nc2ccccc2S1 (stereo not drawn)	i	0.04
CCOC(=O)N1CCC(NC(=O)c2cn(-c3ccc(OC)cc3)c(=O)c3ccccc23)CC1	i	0.66
Cc1cccc(C)c1NC(=O)CN(C)C(=O)c1cc(S(=O)(=O)N2CCOCC2)ccc1N1CCCC1	i	0.96
Cc1cc2c(cc1S(=O)(=O)Nc1cccc(F)c1)n(C)c(=O)c(=O)n2C	i	-0.03
Cn1nnc(NC(=S)NC(=O)c2cccc3ccccc23)n1	i	0.01
CCc1ccccc1-n1c(SCC(=O)NC)nnc1-c1ccco1	i	-0.21
CCN(Cc1ccccc1)C(c1ccncc1)c1nnnn1C(C)(C)C (stereo not drawn)	i	1.2
Cc1cccc(N2CC3=C(C2=O)C(c2ccccc2)NC(=O)N3C)c1 (stereo not drawn)	i	0.61
NC(=O)C1CC(=O)N(Cc2ccc3c(c2)OCO3)C(=Nc2ccccc2)S1 (stereo not drawn)	i	2.1
CC1(C)CC(=O)C2=C(C1)OC(N)=C(C#N)C21C(=O)N(CN2CCOCC2)c2ccccc21 (stereo not drawn)	i	0.96
Cc1ccc([N+](=O)[O-])cc1NC(=O)CN1CCC(C)CC1	i	-0.29
COc1ccc(NC(=O)CSc2nc3ccccc3c(=O)n2CCCN2CCOCC2)c(OC)c1	i	-0.4
N#CC(C#N)=C1C(=O)N(CCN2CCCCC2)c2ccccc21	i	0.04
CCOC(=O)CSC1=NC(=O)/C(=C/c2ccc(Br)cc2)S1	i	0.4
CCOC(=O)C1CCN(C(=O)CSc2c3c(nc4ccccc24)CCC3)CC1	i	0.57
Cc1cccc(C(=O)N2CCCCCC2)c1[N+](=O)[O-]	i	0.84
O=C(O)c1ccccc1C(=O)NNc1cccc(Cl)n1	i	-0.45
COc1ccc(CCNc2nc(-c3sc(C)nc3C)cs2)cc1OC	i	-0.61
Cc1cc(NC(=O)c2ccc(Cl)cc2)n(CCOC(=O)c2ccc(Cl)cc2)n1	i	-1.5
CC(=O)n1nc(-c2ccco2)nc1SCc1ccccc1	i	-0.04
Cc1cc(C)cc(C(=O)NC(CC(N)=O)c2ccc(NC3CCCCCCC3)c([N+](=O)[O-])c2)c1 (stereo not drawn)	i	-0.02
CCc1ccccc1OCC(=O)Nc1ccc2c(c1)OCCO2	i	-0.42
CCN(CCn1cccn1)C(=O)c1cc(COc2ccccc2SC)on1	i	-0.21
O=C(COC(=O)CNC(=O)c1cccc([N+](=O)[O-])c1)Nc1cccc(S(=O)(=O)N2CCCC2)c1	i	0.45
CCOc1cccc(CN2CCC(n3nccc3NC(=O)CCCc3ccccc3)CC2)c1	i	-1.6
Cc1ccc(NC(=O)c2cccs2)cc1S(=O)(=O)Nc1cccc(Cl)c1	i	0.48
COc1ccc(NC(=O)NNC(=O)COc2ccc3cc(Br)ccc3c2)cc1OC	i	0.23
COn1c2c(c3c4nonc4ccc31)CCCC2	i	-0.36
CCOc1cc(NC(=O)c2ccccn2)c(OCC)cc1NC(=O)c1ccc(C)cc1	i	-0.31
O=C1C2CC=CCC2C(=O)N1Cc1ccccc1 (stereo not drawn)	i	1.5
O=C(Nc1ccccc1-c1ccccc1)c1ccc(Cl)c([N+](=O)[O-])c1	i	-0.64
Cc1ccc(CNC(=O)CCNS(=O)(=O)c2cccc3nonc23)cc1	i	-0.04
COc1ccc(-c2nnc3ccc(SCC(=O)N4CCCC4)nn23)cc1	i	2.2
COc1ccccc1CN1CC(C(=O)NCc2cc(F)ccc2C)CCC1=O (stereo not drawn)	i	0.26
CN(c1cccc(NC(=O)c2ccc(CN3CCc4ccccc4C3)cc2)c1)S(C)(=O)=O	i	-0.05
O=C(O)C1C2C=CC(O2)C1C(=O)NCc1ccc(Cl)cc1 (stereo not drawn)	i	-1.9
CCOC(=O)c1sc(-c2ccc(C)cc2)c(C#N)c1C	i	1.1
Cc1ccc(CN2C(=O)[C@@H]3Cc4c([nH]c5ccccc45)C(C)(C)N3C2=O)cc1	i	-0.06

Given as comma-separated lines: four of the compounds above.
SMILES,KCNQ2 inh,KCNQ2 inh baseline
COn1c2c(c3c4nonc4ccc31)CCCC2,i,-0.36
NC(=O)C1CC(=O)N(Cc2ccc3c(c2)OCO3)C(=Nc2ccccc2)S1 (stereo not drawn),i,2.1
CC1(C)CC(=O)C2=C(C1)OC(N)=C(C#N)C21C(=O)N(CN2CCOCC2)c2ccccc21 (stereo not drawn),i,0.96
COc1cc(-c2nc(CN3CCN(C(=O)c4ccco4)CC3)c(C)o2)ccc1F,i,0.8

(more compounds)
SMILES	KCNQ2 inh	KCNQ2 inh baseline
Cc1nnc(SCC(=O)Nc2ccc3[nH]c(=O)[nH]c3c2)s1	i	0.63
c1ccc2c(c1)oc1c(NCC3CCCO3)ncnc12 (stereo not drawn)	i	1.1
CCN(CC)C(=O)CSc1nc2[nH]ncc2c(=O)[nH]1	i	-0.92
O=C(O)CSc1nnc(-c2ccncc2)n1CCc1ccccc1	i	-0.01
O=C(Nc1nnc(SCC(=O)N2CCCc3ccccc32)s1)c1ccc2ccccc2c1	i	-0.63
CCc1ccc(-c2cc(C)no2)cc1S(=O)(=O)N1CCN(c2ccc(C(C)=O)cc2)CC1	i	-1.3
Cc1ccc(-c2noc(CCC(=O)N3CCN(c4cccc(C(F)(F)F)c4)CC3)n2)cc1	i	-0.03
O=C(Cn1c(-c2ccccc2)c[n+]2ccsc12)c1ccccc1	i	-2.3
Cc1ccc(/C=C(\NC(=O)c2ccccc2)C(=O)NCC2CCCO2)o1 (stereo not drawn)	i	-2.8
O=C1OC(c2ccc3c(c2)OCO3)N(C(=O)c2ccc(Cl)c(Cl)c2)c2ccccc21 (stereo not drawn)	i	-0.13
OCC1(Cc2ccccc2F)CCCN(CCc2ccccc2)C1 (stereo not drawn)	i	0.3
O=C(NNS(=O)(=O)c1ccccc1[N+](=O)[O-])c1ccccc1Cl	i	0.9
CN(C)c1cc(NC(=O)CNC(C)(C)C)c2ccccc2n1	i	-0.62
Cc1nn(-c2ccccc2)c(Cl)c1/C=C/C(=O)c1ccc(O)cc1	i	-1.3
Cc1c(Cl)cnc(NC(=O)COC(=O)c2cc3c(s2)CCC(C)C3)c1Cl (stereo not drawn)	i	1.9
O=C(c1ccccc1)[C@@H]1[C@@H]2C(=O)N(c3ccc(F)cc3)C(=O)[C@@H]2C2CCCN21 (stereo partly drawn)	i	0.91
Cc1cc(C)c(S(=O)(=O)c2ccccc2C)c(N(C)C)n1	i	-0.18
CN1CCC(N(C)C(=S)NCCc2ccccc2)CC1	i	0.19
Clc1ccc(COn2c(-c3ccc(Cl)cc3Cl)nc3ncccc32)cc1	i	-0.54
Cc1nn(-c2ccccn2)c(C)c1Oc1ccccc1O	i	-1.3
C/C(CC(=O)Nc1ccc(N(C)C)cc1)=N\NC(=O)Cc1csc(N)n1	i	-0.44
O=C(COC(=O)/C=C/c1ccc2c(c1)OCO2)Nc1ccccc1	i	0.44
S=C(NCc1ccccc1)NCc1ccccc1	i	2.5
CCC(=O)Nc1cccc(C(=O)/C=C/c2ccccc2)c1	i	0.36
CS(=O)(=O)N(CC(=O)NCC1CCCO1)c1cccc(Cl)c1 (stereo not drawn)	i	0.32
CCOc1ccc(C(=O)N2CCN(c3cccc(C)c3C)CC2)cc1	-5.8*	0.35*
COc1ccc([C@@H]2[C@@H]3C(=O)N(C(C)(C)C)C(=O)[C@@H]3[C@]3(Cc4ccccc4)C(=O)N(c4ccccc4)C(=O)N23)cc1	i	-0.67
CC1CCN(c2ccc(C(=O)NCCc3ccccc3)cn2)CC1	i	3.1
O=C(C1=C[C@@H](C2CC2)C[C@@H](OCCCCO)O1)N1CCOCC1	i	-2.7
O=C1CC(c2ccccc2)NC(=O)N1 (stereo not drawn)	i	-0.04
CC12C=CC(=O)C=C1CCC1C3CCC(O)(C(=O)CO)C3(C)CC3OC312 (stereo not drawn)	i	0.53
Cc1c(C(=O)N2CCOCC2)oc2c1C(=O)CC(C)(C)C2	i	3.6
CCOc1ccccc1Nc1cc(C)nc2nc(C)nn12	i	-0.43
CCOc1cc(/C=N/NC(=O)CNc2cccc(C)c2)ccc1OC(=O)c1ccccc1	i	-0.13
Cc1ccc(-c2nnc3ccc(SCC(=O)NCc4ccco4)nn23)cc1	i	-0.31
O=C(Nc1ccccc1Cl)c1cccc(NC(=O)c2cccs2)c1	i	-0.56
